Screening data: PubChem, ICCB-Longwood Screening Facility, Harvard Medical School
Vaccinia pol inh: inhibitors of vaccinia virus processive DNA synthesis (E9 polymerase); 0.94% of 46,000 active; in vitro processive DNA synthesis, absorbance read-out; stronger effect = lower value; some inactives read as strong as hits; normalized absorbance, % (concentration not given with the values);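 active means replicate mean up to 90% and picked by the depositor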;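 further: 100% = median of the test wells of a plate; 100 nL library stock went into each well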
An asterisk follows results filed as active.

For NS(=O)(=O)c1ccc(CCNC(=O)C(Sc2ccccc2)c2ccccc2)cc1 (stereo not drawn) the results were Vaccinia pol inh 101.
Screening CCC12CN(C(=O)c3ccc(OC)cc3)CC(CC)(CN(C(=O)c3ccc(OC)cc3)C1)C2=O returned Vaccinia pol inh 100.
For CCC(Sc1nc2ccsc2c(=O)n1NC(=O)c1ccccc1)C(=O)Nc1cccc(C)c1 (stereo not drawn) the results were Vaccinia pol inh 99.
CCN1CCN(CCNC(=O)c2ccc3c(c2)NC(=O)/C(=C\c2cccc(Cl)c2)S3)CC1 was read as Vaccinia pol inh 80.
Screening Cc1ccc(CNC(=O)CSc2nnc(N3C(=O)c4ccccc4C3=O)s2)cc1 returned Vaccinia pol inh 99.
For C=C1CC[C@H](O)C/C1=C/C=C1\CCC[C@]2(C)C([C@H](C)/C=C/[C@H](C)C(C)C)CC[C@@H]12 (stereo partly drawn) the results were Vaccinia pol inh 100.
Screening CCOC(=O)c1cc(-c2ccccc2)nn1CCC#N returned Vaccinia pol inh 85.
Screening O=C(O)CCC(=O)NCC1COc2ccccc2O1 (stereo not drawn) returned Vaccinia pol inh 105.
Screening CCc1cccc(NC(=O)c2csc3c2CCCC3)c1 returned Vaccinia pol inh 96.
CCn1cc(Br)c(-c2nc3ccccc3c(=O)n2N)n1 was read as Vaccinia pol inh 100.
For O=C(O)CCCC(=O)Nc1ccc(-c2nc3ccccc3[nH]2)cc1 the results were Vaccinia pol inh 60*.
`CCN(CC)c1cc(C)c2cc(NC(=O)/C(C)=C\c3ccccc3)ccc2n1` gave Vaccinia pol inh 103.
CCOC(=O)c1sc(SC)nc1N was read as Vaccinia pol inh 93.
`CNC(=S)N(Cc1ccccc1)Cc1ccccc1` gave Vaccinia pol inh 100.
Screening C1=Nc2ccccc2-c2nnc(SCc3ccccc3)nc2O1 returned Vaccinia pol inh 91.
For O=C(Nc1ccccc1Br)N(C1=NCCS1)c1ccc(Cl)cc1 the results were Vaccinia pol inh 102.
CCOC(=O)c1ccccc1NC(=O)c1ccc(-n2nc(C)cc2C)cc1 was read as Vaccinia pol inh 96.
COc1ccc(/C=C2\SC(=S)N(CC3CCCO3)C2=O)cc1 (stereo not drawn) was read as Vaccinia pol inh 97.
For CCn1c(NCc2ccccn2)nc2ccccc21 the results were Vaccinia pol inh 113.
COc1ccc(NC(=O)C(C(=O)Nc2ccc(OC)cc2)C23CC4CC(CC(C4)C2)C3)cc1 was read as Vaccinia pol inh 84.

The closing two compounds of the section before come first, to join the parts.
For CCn1c(NCc2ccccn2)nc2ccccc21 the results were Vaccinia pol inh 113.
COc1ccc(NC(=O)C(C(=O)Nc2ccc(OC)cc2)C23CC4CC(CC(C4)C2)C3)cc1 was read as Vaccinia pol inh 84.
For CCOC(=O)c1c(CN(CC)CC)oc2ccc(OC)cc12 the results were Vaccinia pol inh 98.
`CC1(C)Cc2cccc(C(=O)Nc3ccc(C(F)(F)F)cc3)c2O1` gave Vaccinia pol inh 102.
For CCCC1CCC(C(=O)NC(C(=O)O)C(C)C)CC1 (stereo not drawn) the results were Vaccinia pol inh 106.
Screening NC(=O)COC(=O)COc1ccccc1 returned Vaccinia pol inh 107.
`O=C(COC(=O)c1ccccc1)NC1CCCCCC1` gave Vaccinia pol inh 92.
Screening CC(C)c1ccc(NC(=O)C(c2ccccc2)N(C)C(=O)Cc2cccs2)cc1 (stereo not drawn) returned Vaccinia pol inh 102.
Screening O=C1Sc2ccc(S(=O)(=O)Nc3ccc(Br)cc3)c3cccc1c23 returned Vaccinia pol inh 100.
`COc1ccc(Nc2nc3ccccc3[nH]2)cc1` gave Vaccinia pol inh 98.
`COc1ccc(C(=O)Nc2nc3c(s2)CC(C)CC3)cc1` (stereo not drawn) gave Vaccinia pol inh 94.
`COc1cccc(CN2CCc3[nH]c(=S)[nH]c(=O)c3C2)c1` gave Vaccinia pol inh 101.
Screening O=CNC1c2ccccc2Oc2ccccc21 returned Vaccinia pol inh 100.
For Cc1cc2c(c(=O)[nH]1)C(=O)O/C2=C\c1ccco1 the results were Vaccinia pol inh 97.
`CCOc1ccc2oc(-c3cc(Br)cc4c3OCOC4)c(N)c(=O)c2c1` gave Vaccinia pol inh 102.
`O=C1c2cccc3cc(Br)cc(c23)C(=O)N1Nc1ccc(Cl)cc1` gave Vaccinia pol inh 100.
For CCOC(=O)c1c(C)oc2c1c1c(c3ccccc32)OCN(CCc2ccccc2)C1 the results were Vaccinia pol inh 100.
Screening CC(=O)Oc1cccc(N2Cc3ccccc3C2=O)c1 returned Vaccinia pol inh 99.
`N#C/C(C(N)=O)=C1/CCc2ccccc2N1` gave Vaccinia pol inh 100.
`CN1C(C(=O)NCC23CC4CC(CC(C4)C2)C3)=CC(c2ccco2)=NS1(=O)=O` gave Vaccinia pol inh 98.
Cc1cc2ncn(C(C)c3ccccc3)c2cc1C (stereo not drawn) was read as Vaccinia pol inh 101.
For Oc1cccc(O)c1 the results were Vaccinia pol inh 98.

Sorted by SMILES length (smallest number first): 3 of the compounds above.
`O=C(COC(=O)c1ccccc1)NC1CCCCCC1` gave Vaccinia pol inh 92.
Screening O=C1Sc2ccc(S(=O)(=O)Nc3ccc(Br)cc3)c3cccc1c23 returned Vaccinia pol inh 100.
Screening CC(C)c1ccc(NC(=O)C(c2ccccc2)N(C)C(=O)Cc2cccs2)cc1 (stereo not drawn) returned Vaccinia pol inh 102.

Structural class, the compounds so far with a furan ring, fused or not.
For CCOC(=O)c1c(CN(CC)CC)oc2ccc(OC)cc12 the results were Vaccinia pol inh 98.
For Cc1cc2c(c(=O)[nH]1)C(=O)O/C2=C\c1ccco1 the results were Vaccinia pol inh 97.
For CCOC(=O)c1c(C)oc2c1c1c(c3ccccc32)OCN(CCc2ccccc2)C1 the results were Vaccinia pol inh 100.
`CN1C(C(=O)NCC23CC4CC(CC(C4)C2)C3)=CC(c2ccco2)=NS1(=O)=O` gave Vaccinia pol inh 98.

(listing goes on)
Screening COCCn1cnc2cc(C)c(C)cc21 returned Vaccinia pol inh 108.
Screening CCC(C)NC(=O)C1CCC(=O)N1CCc1ccccc1 (stereo not drawn) returned Vaccinia pol inh 94.
`O=c1c(Cl)c(Cl)cnn1C12CC3CC(CC(C3)C1)C2` gave Vaccinia pol inh 86.
`Cc1cc(=O)oc2cc(OC(=O)C3CCCN3C(=O)OC(C)(C)C)c(Cl)cc12` (stereo not drawn) gave Vaccinia pol inh 98.
Screening COc1cccc(C(=O)/C=C(\Nc2ccc3c(c2)COC3=O)C(=O)O)c1 returned Vaccinia pol inh 97.
Screening Cc1cc(N2CCC(C)CC2)nc2cccc(O)c12 returned Vaccinia pol inh 89.
For O=C(CCCC(=O)c1ccccc1)Nc1ncn[nH]1 the results were Vaccinia pol inh 73*.
For CC(C)C(=O)Nc1ccc(N2CCN(c3ccc(F)cc3)CC2)cc1 the results were Vaccinia pol inh 100.
`CC(=O)N1CC(=O)Nc2ccc(Cl)cc2C1c1ccccc1` (stereo not drawn) gave Vaccinia pol inh 97.
Screening COC(CNC(=O)c1cnn2c(C)c(Cc3c(C)cc(C)cc3C)c(C)nc12)OC returned Vaccinia pol inh 101.
`CCC(=O)Nc1cccc(-c2cn3ccccc3n2)c1` gave Vaccinia pol inh 101.
Screening COc1ccc2[nH]c(C)cc(=O)c2c1 returned Vaccinia pol inh 103.
`COc1ccc(NC(=O)CSC2=NCCN2)cc1` gave Vaccinia pol inh 100.
`O=CNc1nonc1NC(=O)c1ccccc1Cl` gave Vaccinia pol inh 95.
`c1ccc(Oc2ccc(-c3ccnc4ncnn34)cc2)cc1` gave Vaccinia pol inh 111.
Screening CCCCC/C=C\CC1OC1C/C=C\C/C=C\CCCC(=O)O (stereo not drawn) returned Vaccinia pol inh 100.
Screening O=C(Cn1ccn(Cc2ccccc2)c(=O)c1=O)Nc1ccccc1 returned Vaccinia pol inh 107.
Screening CC(C)CNC1=NCCS1 returned Vaccinia pol inh 93.
Screening Cc1cc(NC(=O)NCCNc2ncccc2C(F)(F)F)c(C(F)(F)F)o1 returned Vaccinia pol inh 105.
`Cc1ccc(CC(=O)NCC(O)c2ccccc2)cc1` (stereo not drawn) gave Vaccinia pol inh 97.
`Clc1ccc2nc(N3CCCCC3)nc(-c3ccccc3)c2c1` gave Vaccinia pol inh 100.
Screening CCc1ccccc1N1CC(c2nc3ccccc3n2CCc2ccccc2)CC1=O (stereo not drawn) returned Vaccinia pol inh 107.
For CC(C)c1ccc(-c2nc(O)cc(=O)s2)cc1 the results were Vaccinia pol inh 106.
`COCCN1C(=O)/C(=C/c2sccc2C)SC1=S` gave Vaccinia pol inh 99.
`Cc1ccc(OCCN)c(Br)c1` gave Vaccinia pol inh 100.
For N#CC(=C1Nc2ccccc2N1)c1nc(C#N)c(C#N)nc1Cl the results were Vaccinia pol inh 101.
Cc1ccc(S(=O)(=O)NC(C(=O)Oc2ccc3c4c(c(=O)oc3c2)CCCC4)C(C)C)cc1 (stereo not drawn) was read as Vaccinia pol inh 100.
For CCOC(=O)c1c(NC(=O)CCN2CCOCC2)sc(C)c1-c1ccccc1 the results were Vaccinia pol inh 82.
CN1CCN(S(=O)(=O)N(C)C)CC1 was read as Vaccinia pol inh 92.
`CC(C)(C)c1ccc(N=Cc2ccccc2O)cc1` gave Vaccinia pol inh 98.
`CCOc1ccc(C(N)CC(=O)OC)cc1` (stereo not drawn) gave Vaccinia pol inh 100.
Cc1ccc(-n2nc(C(=O)N3CCCC3)c3c4ccccc4n(C)c3c2=O)cc1 was read as Vaccinia pol inh 98.
O=C(Nc1cccc(-c2nc3ccccc3[nH]2)c1)C1=COCCO1 was read as Vaccinia pol inh 87.
Screening CC(C)(C)c1ccc(-c2noc(CCn3c(=O)oc4ccccc43)n2)cc1 returned Vaccinia pol inh 98.
Screening COc1cc(/C=C2/SC(=S)N(c3ccc4ccccc4c3)C2=O)ccc1O returned Vaccinia pol inh 105.
`CCOC(=O)c1c(/N=C/c2ccccc2O)sc(C)c1C` gave Vaccinia pol inh 100.
Screening CC1Cc2ccccc2N1C(=O)CSc1nncn1C (stereo not drawn) returned Vaccinia pol inh 105.
CC1(C)CSC(Nc2cccc(C(F)(F)F)c2)=N1 was read as Vaccinia pol inh 98.
Screening N#CC(NC(=S)Nc1cccc(Cl)c1)c1ccccc1 (stereo not drawn) returned Vaccinia pol inh 102.
CCOC(=O)c1cc(C)sc1/N=C/C1C(=O)NC(=S)NC1=O was read as Vaccinia pol inh 99.
`O=C(CCC1Nc2c3ccccc3nc(=S)n2C1=O)NC1CC1` (stereo not drawn) gave Vaccinia pol inh 100.
`OC(CNCc1ccc(Cl)cc1Cl)Cn1c(-c2ccc(F)cc2)cc2ccccc21` (stereo not drawn) gave Vaccinia pol inh 112.
CC(C)(C)C(=O)Nc1ccc(NC(=O)c2ccco2)cc1 was read as Vaccinia pol inh 96.
Screening Cc1noc(/C=C/c2ccco2)c1S(=O)(=O)N1CCC(C(=O)N2CCCCC2)CC1 returned Vaccinia pol inh 103.
For CCOc1ccc(/C=C2/C(=O)Nc3ccccc32)cc1 the results were Vaccinia pol inh 88.
Screening CCn1c(=O)c2cc(C(=O)NCC(OC)OC)sc2c2ccccc21 returned Vaccinia pol inh 98.
COc1cc2c(cc1OC)-c1c(C#N)c(-c3ccc(C)cc3)c(C(=O)c3cccs3)n1CC2 was read as Vaccinia pol inh 90.
`Cc1oc(C(C)(C)C)cc1C(=O)NCc1csc(-c2cccs2)n1` gave Vaccinia pol inh 94.
`CC(Oc1ccccc1)c1ccnc2ncnn12` (stereo not drawn) gave Vaccinia pol inh 110.
`CC(SCCc1ccccn1)C(=O)O` (stereo not drawn) gave Vaccinia pol inh 98.
Screening O=C1CCc2cc(S(=O)(=O)NCc3ccccc3)ccc2N1 returned Vaccinia pol inh 99.
S=C(Nc1ccccc1Cl)N(CCN1CCCCCC1)Cc1cccs1 was read as Vaccinia pol inh 98.
For Cc1ccc(CNC(=O)c2c(C)cc(=O)oc2C)cc1 the results were Vaccinia pol inh 96.
For CCc1cccc(NC(=O)Cn2cccc2)c1 the results were Vaccinia pol inh 70.
For COc1ccc(C2C(C(=O)NC3CCCCCC3)CCC(=O)N2c2ccc(OC)cc2)cc1 (stereo not drawn) the results were Vaccinia pol inh 98.
Screening N#CC(c1ccco1)N1CCN(C(=O)c2ccccc2)CC1 (stereo not drawn) returned Vaccinia pol inh 100.
Cc1cc(C)c(C#N)c(OCc2cccc(C(F)(F)F)c2)n1 was read as Vaccinia pol inh 108.
For O=C(O)Cc1ccc2ccccc2c1Br the results were Vaccinia pol inh 96.
CCC1(C)Cc2c(sc3nc(SC)n4c(SCc5ccccc5)nnc4c23)CO1 (stereo not drawn) was read as Vaccinia pol inh 100.
CC1CCCN(Cn2cnc3ccccc32)C1 (stereo not drawn) was read as Vaccinia pol inh 102.
O=C1C(=Cc2cccnc2)C(=O)c2ccccc21 was read as Vaccinia pol inh 81.
Screening CC1(C)Cc2c(sc(NC(=O)Cc3ccccc3)c2C#N)C(C)(C)N1 returned Vaccinia pol inh 101.
`Cc1cccc(N2CCN(C(=O)Nc3cn(C)c(=O)c4ccccc34)CC2)c1C` gave Vaccinia pol inh 68.
`O=C(NCCOc1ccc2ccccc2c1)c1cncc(Br)c1` gave Vaccinia pol inh 100.
Screening CC12CC(/C(=C(O)\C=C\c3ccccc3)C(=O)N1)c1ccccc1O2 (stereo not drawn) returned Vaccinia pol inh 83.

Pulled by compound from the list above:
Screening CC1(C)Cc2c(sc(NC(=O)Cc3ccccc3)c2C#N)C(C)(C)N1 returned Vaccinia pol inh 101.
`Cc1cccc(N2CCN(C(=O)Nc3cn(C)c(=O)c4ccccc34)CC2)c1C` gave Vaccinia pol inh 68.
Screening CC12CC(/C(=C(O)\C=C\c3ccccc3)C(=O)N1)c1ccccc1O2 (stereo not drawn) returned Vaccinia pol inh 83.
O=C1C(=Cc2cccnc2)C(=O)c2ccccc21 was read as Vaccinia pol inh 81.

An excerpt; rates above refer to the full screens.
